FGF22 binding – binders of recombinant human FGF22 by thermal shift | hit rate 1.5% among 340,000 | Q9HCT0 | AID 651658 | calls only at 9.99 µM | SYPRO orange fluorescence; percent of sucrose octasulfate shift, DMSO zero;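 active = melting point raised past a set limit in the mean and every replicate; inconclusive = no clear call; three in four hits are not shown here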
Target sequence (Q9HCT0 whole entry, looked up): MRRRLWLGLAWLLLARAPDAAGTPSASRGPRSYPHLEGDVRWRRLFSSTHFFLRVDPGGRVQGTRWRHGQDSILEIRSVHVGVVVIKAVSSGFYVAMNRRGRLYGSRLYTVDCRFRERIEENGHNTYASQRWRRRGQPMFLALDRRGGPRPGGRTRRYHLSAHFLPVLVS
Vif TR-FRET – HIV-1 Vif–A3G interaction blockers – biochemical, TR-FRET, GST-Vif 1-94, biotin-A3G peptide, dose response retest, primary screen (AID 1117319). TR-FRET GST-Vif / biotin-A3G peptide binding; higher % means a stronger effect; test concentration not given here; strong numbers were not always called active. inhibition, %; hits with a dose series show IC50 in µM. hit rate 0.57% among 260,000;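 active = above the screen mean plus three standard deviations and confirmed in dose response; inconclusive = results disagree or hit not tested in dose response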;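 note: Vif residues 1-94 fused to GST binding biotinylated APOBEC3G peptide 110-148; 0% = full assay without inhibitor and 100% = GST in place of GST-Vif; retest series ran down from 100 µM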
AF4-AF9 inh – MLL-AF4/AF9 protein interaction inhibition | P42568 | AlphaScreen, biotin-AF4 peptide binding to FLAG-AF9 | inhibition, % at 10 µM | hit rate 0.47% among 350,000 | AID 651704;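 active = every replicate reaching a set inhibition limit, whatever the replicate mean, cut at about 25% in these data; inconclusive = mean inhibition reaches that limit but some replicates miss it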;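 note: 0% = plate neutral control median and 100% = total signal loss; the record names both 10 and 1 µM as test concentration; the first replicate is given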
ALR inh – inhibitors of human sulfhydryl oxidase ALR; AID 485317; purified ALR, DTT oxidation, H2O2 HRP-luminol luminescence; inhibition, % (concentration not given with the values); P55789; hit rate 3.8% among 290,000;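 active = mean and each replicate at 75% or more; inconclusive = only one of the two met; inactive = neither met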;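 note: stock transfer was 7.5 nL into about 7.5 µL; 0% = neutral wells and 100% = wells with inactivated enzyme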
Target sequence (P55789 whole entry, looked up): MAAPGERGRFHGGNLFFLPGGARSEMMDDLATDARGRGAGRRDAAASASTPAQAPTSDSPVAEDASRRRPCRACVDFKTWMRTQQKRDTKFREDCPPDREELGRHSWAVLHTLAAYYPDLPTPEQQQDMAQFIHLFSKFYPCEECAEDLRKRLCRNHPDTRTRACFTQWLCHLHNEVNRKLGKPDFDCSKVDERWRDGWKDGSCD
rRNA inh HTS – inhibitors of bacterial rRNA selective over humanized ribosomes; E. coli WT GFP vs humanized-ribosome RFP mutants, fluorescence, 24 h; hits give low values; DMSO median 0, no signal -100; GFP signal change (wild-type ribosome), % (test concentration not listed); hit rate 1.6% among 350,000; AID 720706;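 active = significant combined selectivity score with lowered wild-type GFP, culture density cut under 30%, mutant RFP and density less affected; inactive = any of these conditions unmet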; note: one replicate is shown; some compounds called inactive have numbers as strong as hits
HNF4A DNA FP – change in binding of human HNF4 alpha to DNA; P41235; HNF4a-FITC DNA binding, fluorescence polarization, 1 h; hit rate 0.3% among 360,000; AID 1224865; activity change, % at 10 µM; in the data active = activity change above about 30%, passing the limit was not always enough;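 note: controls were the assay level and a saturating level of protein; the project sought stronger binding though the title names inhibitors; some compounds called inactive have numbers as strong as hits; positive values seem to mean higher polarization but the record does not say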
Target sequence (P41235 whole entry, looked up): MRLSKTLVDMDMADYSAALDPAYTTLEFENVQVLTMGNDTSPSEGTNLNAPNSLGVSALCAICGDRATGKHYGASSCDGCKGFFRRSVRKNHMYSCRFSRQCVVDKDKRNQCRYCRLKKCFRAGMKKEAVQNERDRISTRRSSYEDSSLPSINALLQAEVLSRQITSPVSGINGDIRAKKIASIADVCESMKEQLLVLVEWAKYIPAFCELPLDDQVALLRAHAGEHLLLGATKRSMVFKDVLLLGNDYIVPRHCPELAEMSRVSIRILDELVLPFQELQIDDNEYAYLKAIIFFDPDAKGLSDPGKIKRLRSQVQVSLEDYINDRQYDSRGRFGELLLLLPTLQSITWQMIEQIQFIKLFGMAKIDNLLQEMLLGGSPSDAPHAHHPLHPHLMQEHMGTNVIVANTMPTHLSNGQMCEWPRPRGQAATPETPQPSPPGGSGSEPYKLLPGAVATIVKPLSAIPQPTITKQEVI
E coli growth – E. coli growth inhibition; AID 1053175; hit rate 0.21% among 330,000; Escherichia coli growth, OD600, 23 h; hits give low values; OD600 absorbance (concentration not given with the values);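 active = OD600 absorbance below the run mean of sample wells minus 3.6 SD, in any replicate, cut at about 0.56 in these data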;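 note: stock transfer was 300 nL into about 60 µL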
rRNA inh HTS OD600 – also measured in rRNA inh HTS; calls as there; OD600 change, %; measured here: OD600 growth;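 optical density of the mix in the first replicate; 0 = DMSO median and -100 = no signal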
rRNA inh HTS RFP – second read-out of rRNA inh HTS, no call of its own (marks repeat the call); RFP signal change, %; measured here: RFP humanized mutant strains;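 first replicate; 0 = DMSO median and -100 = no signal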
* = called active by the depositor; i = inactive; ? = inconclusive; · = no result given; & = joins results of further samples. An excerpt; rates above refer to the full screens.

SMILES	FGF22 binding	Vif TR-FRET	AF4-AF9 inh	ALR inh	rRNA inh HTS	rRNA inh HTS OD600	rRNA inh HTS RFP	HNF4A DNA FP	E coli growth
CCCc1cc(=O)[nH]c2nnc(SCC(=O)Nc3nccs3)n12	i	-6%	1.5	-8	3	15	-1.1	2.4	0.68
COCCN1C(=O)CCC1(C)c1nnnn1Cc1ccccc1 (centres undefined)	i	·	-2.4	·	12	10	-5.2	-0.2	·
COc1ccc2c3c(n(C)c2c1)[C@H](CO)N(C(=O)Nc1ccccc1F)CC31CCN(C)CC1	i	·	10.0	·	3	-9	-1.9	·	·
C=C(C)C(=O)Nc1cccc(C(C)=O)c1	·	0%	·	7	·	·	·	7.3	·
O=C(CSCc1cccc(Cl)c1)OCc1nc2ccsc2c(=O)[nH]1	i	-4%	-1.1	·	-4	5	-1.8	0.2	0.62
Cn1nnnc1-c1cc(Br)ccc1NC(=O)c1ccccc1	·	-5%	·	2	·	·	·	-2.5	0.72
O=C(N/N=C/c1cn[nH]c1-c1ccc(F)cc1)c1ccncc1	·	5%	·	63	·	·	·	0.3	·
C[C@@H]1CN([C@H](C)CO)C(=O)c2cc(-c3cccnc3)cnc2O[C@H]1CN(C)C(=O)c1cccc(F)c1	i	·	-1.8	·	-4	7	-2.9	·	·
Cc1ccc(C)c(N2CCN(C(=O)c3nn(C)c4c3CS(=O)(=O)c3ccccc3-4)CC2)c1	i	·	0.7	1	-14	-7	16	-3.7	0.65
C[C@@H]1CN([C@@H](C)CO)S(=O)(=O)c2ccc(C3=CCCCC3)cc2O[C@H]1CN(C)Cc1cccc(C(=O)O)c1	i	·	1.4	·	-5	-1	-2.1	·	·
CCC(C)c1ccccc1N1CC(C(=O)N2CCN(S(=O)(=O)c3ccc(F)cc3)CC2)CC1=O (centres undefined)	i	3%	-30	1	-3	-5	3.3	-2.6	0.67
COC(=O)C(C)Sc1nc(NCc2ccccc2)nc(N(C)C)n1 (centres undefined)	i	·	-4.1	·	5	5	-1.2	-2.6	0.75
N#C[C@H]1[C@@H](c2ccccc2-c2ccccc2F)[C@@H](CO)N1C(=O)Cc1ccccc1	i	·	0.0	·	-7	-10	-1.8	·	·
CCN(CC)C(=O)CC(c1ccc2c(c1)OCO2)c1c(O)cc(OC)cc1OC (centres undefined)	i	22%	3.9	0	-6	-4	-8.4	-1.9	0.68
CCN(CC)CC(=O)Nc1ccc(/C(C)=N/NC2=NCCN2)cc1	i	-1%	3.1	1	17	11	0.1	7.2	·
COc1cc2c(cc1OC)C(c1ccc3c(c1)OCO3)C1=C(CC(C)(C)CC1=O)N2 (centres undefined)	·	3%	·	98*	·	·	·	1.6	0.71
COc1ccc(CN(C)C[C@@H]2Oc3ccc(NS(C)(=O)=O)cc3C(=O)N([C@H](C)CO)C[C@H]2C)cc1	i	·	-2.7	·	3	-3	0.3	·	·
COc1cccc(-c2cnc3c(c2)C(=O)N([C@@H](C)CO)C[C@@H](C)[C@H](CN(C)Cc2ccncc2)O3)c1	i	·	0.7	·	-4	-3	-0.2	·	·
CN(C)C(=O)C[C@H]1CC[C@H]2[C@H](COc3ccc(NC(=O)c4ccc(F)cc4)cc3C(=O)N2C)O1	i	·	-1.0	·	2	3	-1.9	·	·
O=C(COC(=O)CCC(=O)c1ccc(Cl)cc1)NCc1ccco1	i	23%	-5.4	0	10	11	-2.1	-5.8	0.68
Cc1noc(C)c1CSc1nnc(-c2ccncc2)n1-c1ccc(Cl)c(Cl)c1	·	10%&4%	·	-3	·	·	·	-1.4	0.72
Cc1ccc(OCc2cc(C(=O)NCCn3cccn3)no2)cc1C	i	·	2.2	5	-2	-3	1.1	0.7	0.66
O=C(O)c1ccc(C[n+]2c(-c3ccccc3)csc2Nc2ccccc2)cc1	·	5%	·	32	·	·	·	1.8	0.67
Cc1nn2c(nc(N3CCCCC3)c3ccccc32)c1C=O	i	-3%	-7.0	·	-29	-43	-15	2.0	0.7
O=C(CSCc1ccccc1F)NCc1ccccc1	i	-4%	-1.0	27	-10	0	-2.3	3.2	0.69
CC(NC(=O)c1cccc(S(=O)(=O)N2CCc3ccccc32)c1)c1ccco1 (centres undefined)	i	-1%	5.7	1	-3	-16	-2.4	-2.7	0.67
CCOc1ccc(N2C(=O)C3ON(C)C(c4ccc([N+](=O)[O-])cc4)C3C2=O)cc1 (centres undefined)	i	-5%	-0.8	0	1	2	0.4	-0.4	0.67
CN(C)CCCNC(=O)CCc1nc2ccccc2c(=O)[nH]1	·	-3%	·	9	·	·	·	1.3	0.71
O=C(c1ccccc1)N1C[C@@H]2[C@H](c3ccccc31)[C@@H](CO)N2Cc1ccccc1F	i	·	0.6	·	-7	-5	4.5	·	·
CCSc1nnc(NC(=O)c2cc(OC)c(OC)c(OC)c2)s1	i	·	-8.7	33	-3	-2	-1.1	2.3	0.66
COC(=O)c1ccc(NC(=S)NC(=O)C2CCC2)cc1	i	·	0.8	2	-5	-3	0.1	4.4	0.62
Cc1cccc(NC(=O)c2cc(S(=O)(=O)N3CCC4(CC3)OCCO4)ccc2F)c1	i	2%	2.2	-3	1	-2	-0.7	-0.8	0.65
c1coc(-c2nnc(SCc3nc4ccccc4[nH]3)o2)c1	i	6%	3.0	-5	-3	0	1.9	28	0.69
O=C(Nc1nnc(SCc2ccc(F)cc2)s1)c1ccccn1	i	5%	5.8	·	-47	-70	-4.5	0.0	0.71
C[C@H](CO)N1C[C@H](C)[C@@H](CN(C)C(=O)c2cccc(F)c2)Oc2ncc(/C=C/c3ccccc3)cc2C1=O	i	·	15	·	-7	-30	28	·	·
Oc1cccc(Nc2nc(NCC3CCCO3)c3ccccc3n2)c1 (centres undefined)	·	-7%	·	100*	·	·	·	0.3	0.64
O=C(Cn1c(=O)sc2ccccc21)Nc1ccc(S(=O)(=O)N2CCCC2)cc1	·	0%	·	-10	·	·	·	-1.4	0.67
CCNS(=O)(=O)c1ccc(CCC(=O)Nc2cc(Cl)ccc2Oc2ccccc2)cc1	·	3%	·	-1	·	·	·	-1.3	0.71
C(=Cc1cnc2ccccc2n1)c1ccc2c(c1)OCO2	i	-16%	1.4	·	5	13	1.5	-14	·
C=CC[n+]1c(-c2ccc(Cl)cc2Cl)csc1Nc1ccc(NC(C)=O)cc1	·	12%	44*	12	-18	-42	8.5	3.8	0.68
Cc1ccc(-c2cc(O)cc3sc(=O)oc23)cc1C	i	11%	-5.1	52	-15	-7	-4.3	-5.4	0.61
C=CCn1cnnc1SCC(=O)N(C)CC1COc2ccccc2O1 (centres undefined)	i	3%	-3.6	-15	1	4	-0.3	-0.2	0.68
C=CCN1[C@H](COCc2ccccc2)C=CS1(=O)=O	i	·	-3.8	·	-1	-1	-3.9	0.9	·
N#CCCN(C(=O)CSc1ccc2c(c1)OCCO2)c1ccc(F)cc1	·	-3%	·	98*	·	·	·	0.2	0.7
C/C=C/c1ccc([C@H]2[C@@H](CO)N3C(=O)CN(C(=O)Nc4ccc(F)cc4)C[C@@H]23)cc1	i	·	1.2	·	-3	3	-1.1	·	·
Cc1ccc2[nH]c(=O)c3cc(C(=O)N(CCCOC(C)C)Cc4ccco4)sc3c2c1	i	25%	-0.2	3	-4	-8	12	0.9	0.7
NC(=O)c1ccccc1OCC(=O)NS(=O)(=O)c1ccc(Cl)cc1	·	1%	·	·	·	·	·	2.6	0.68
CCCCn1c(N)c(N(CCC(C)C)C(=O)CSc2nc3ccccc3s2)c(=O)[nH]c1=O	i	1%	0.2	·	8	2	6.0	1.2	·
C=CCC1(CC=C)CCCN1C(=O)CC1C(=O)NCCN1Cc1cc(OC)cc(OC)c1 (centres undefined)	i	12%	3.2	·	·	·	·	4.8	0.71
C[C@H](O)C#Cc1ccc2c(c1)O[C@@H](CN(C)C(=O)Nc1ccccc1)[C@H](C)CN([C@H](C)CO)S2(=O)=O	i	·	-1.2	·	-2	-4	-1.9	·	·

Next section
SMILES	FGF22 binding	Vif TR-FRET	AF4-AF9 inh	ALR inh	rRNA inh HTS	rRNA inh HTS OD600	rRNA inh HTS RFP	HNF4A DNA FP	E coli growth
CC(=O)N[C@H]1CC[C@@H](CC(=O)NCc2ccc(Cl)cc2)O[C@@H]1CO	i	·	-9.6	·	3	2	-2.1	·	·
COc1ccc(OCC(O)CN2CCN(Cc3ccc4c(c3)OCO4)CC2)cc1 (centres undefined)	i	?	2.8	-4	·	·	·	6.2	0.72
C[C@H]1CN([C@@H](C)CO)C(=O)c2cccc(NS(C)(=O)=O)c2O[C@H]1CN(C)Cc1ccc2c(c1)OCO2	i	·	-2.3	·	0	6	-3.1	·	·
COCCNC(=O)C[C@@H]1C[C@H]2c3cc(NC(=O)C4CCC4)ccc3O[C@H]2[C@H](CO)O1	i	·	-1.3	·	4	15	-2.0	·	·
Cc1ccc2nc(-c3ccc(NC(=S)NC(=O)C(C)C)cc3)sc2c1	i	-8%	7.5	-8	·	·	·	-1.0	0.73
Cc1cccc(N2C(=O)C(O)=C(C(=O)c3cccs3)C2c2ccccc2)n1 (centres undefined)	i	-12%	5.9	-17	-32*	-25*	-1.7*	2.6	0.68
Cc1noc(C)c1S(=O)(=O)Nc1ccc2c(c1)C(=O)N([C@@H](C)CO)C[C@H](C)[C@H](CN(C)Cc1ccc3c(c1)OCO3)OCCCC[C@H](C)O2	i	·	5.5	·	-2	-4	1.6	·	·
Cc1c(C=O)c2ccccc2n1CC(=O)N1CCc2ccccc2C1	·	·	·	3	·	·	·	1.3	0.71
Cc1ccccc1N1CCN(c2ncnc3c2cnn3Cc2ccc(Cl)cc2)CC1	·	?	·	-17	·	·	·	-0.1	·
CCc1ccccc1NC(=S)N1N=CCC1c1ccccc1 (centres undefined)	i	28%	-0.8	-13	-5	-13	-4.7	1.2	·
CCc1nnc(NC(=O)c2nc(S(=O)(=O)Cc3ccccc3)ncc2Cl)s1	i	·	-4.6	12	4	-3	-1.6	3.5	·
COC(=O)C1(C(=O)OC)C[C@H](/C=C/c2ccccc2)N(Cc2ccccc2OC)[C@@H]1c1ccc(F)cc1	i	·	0.0	·	13	14	13	19	·
O=C(NC1(C(=O)O)CCCC1)C(Cl)Cl	·	-9%	-3.7	·	12	8	-1.3	2.5	0.69
Nc1ccc(-c2nc3nc(N)nc(N)c3nc2-c2ccc(N)cc2)cc1	i	9%	3.6	·	7	11	-8.3	2.8	·

Random excerpt: 4 entries already listed
SMILES	FGF22 binding	Vif TR-FRET	AF4-AF9 inh	ALR inh	rRNA inh HTS	rRNA inh HTS OD600	rRNA inh HTS RFP	HNF4A DNA FP	E coli growth
COCCNC(=O)C[C@@H]1C[C@H]2c3cc(NC(=O)C4CCC4)ccc3O[C@H]2[C@H](CO)O1	i	·	-1.3	·	4	15	-2.0	·	·
Nc1ccc(-c2nc3nc(N)nc(N)c3nc2-c2ccc(N)cc2)cc1	i	9%	3.6	·	7	11	-8.3	2.8	·
Cc1noc(C)c1S(=O)(=O)Nc1ccc2c(c1)C(=O)N([C@@H](C)CO)C[C@H](C)[C@H](CN(C)Cc1ccc3c(c1)OCO3)OCCCC[C@H](C)O2	i	·	5.5	·	-2	-4	1.6	·	·
CCc1nnc(NC(=O)c2nc(S(=O)(=O)Cc3ccccc3)ncc2Cl)s1	i	·	-4.6	12	4	-3	-1.6	3.5	·

Screening data from PubChem.
